High-throughput results: PubChem BioAssay, several laboratories
Mtb hypoxia inh: PubChem AID 1159583 | actives 0.1% (n = 300,000) | M. tuberculosis hypoxia-regulated fluorescent reporter, fluorescence | fluorescence inhibition, % (no concentration beside the values);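 active = 35 to 45% if threefold the growth effect, above 45% if 1.5-fold the growth effect; inactive = the rest, general growth blockers included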;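 note: wells of about 50 µL received 100 nL stock; 0% = vehicle wells and 100% = reference inhibitor wells; whole bacteria with a GFP reporter of the hypoxia response; strong numbers were not always called active; many hits fall short of the cut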
Sa ugtP lethal: growth inhibition of ugtP-null S. aureus, primary screen, RN4220 ugtP deletion, OD600 | 16 h; some inactives read as strong as hits | growth inhibition, % (test concentration not listed) | actives 0.54% (n = 330,000);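 active = z-score under -3 and OD600 up to 0.15 on both plates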;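 note: plate controls were untreated wells for no effect and antibiotic for full effect; wells of about 80 µL received 100 nL stock; the first replicate is given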
Autofluor counter: flagged as autofluorescent in microsphere protease counterscreen; compound autofluorescence counterscreen, microsphere flow cytometry; active compounds read high; fluorescence intensity (test concentration not listed); actives 3.1% (n = 360,000); AID 624483;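 active = at least 3 SD above the mean of all compounds, about 16000 in these data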;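 note: 100 nL of 1 mM stock went into each well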
PrP 5UTR inh: inhibition of PrP 5' UTR reporter expression. cell-based PrP 5' UTR mRNA reporter, plate reader. inhibition, % (no concentration beside the values). actives 0.35% (n = 340,000). AID 488862, 2010;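 active = every replicate at 50% or more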;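 note: 0 = median of the neutral control wells; tested in H4 reporter cells; numbers are from one replicate; inactives centre near -14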
Sa RN4220 lethal: growth inhibition of S. aureus RN4220, primary screen, OD600; 16 h; inhibition, % (test concentration not listed); actives 0.33% (n = 330,000); AID 1259311, 2017;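 active = z-score of -3 or lower and OD600 up to 0.18 on both plates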;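 note: plate controls were untreated cells for no effect and reference antibiotic for full effect; stock transfer was 100 nL into about 80 µL; one replicate is shown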
BJeLR viability: MLPCN primary cell-based screen for lethality selective to Ras in HRASV12 cells; inhibition, % (test concentration not listed); AID 1554, 2009; BJeLR (HRASV12) viability, CellTiter-Glo ATP luminescence, 48 h; reference of the scale not given here; actives 0.17% (n = 300,000);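 active = replicate mean above 50%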;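 note: 50 nL library stock added to about 25 µL; numbers are from one replicate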
Mtb hypoxia inh growth: also measured in Mtb hypoxia inh; calls as there; growth inhibition, %; measured here: M. tuberculosis growth (absorbance);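 0% = vehicle and 100% = reference antibiotic; read after six days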
Starred values were filed as active, the others as inactive; / = not tested or not shown.

Below each compound: Mtb hypoxia inh	Mtb hypoxia inh growth	Sa ugtP lethal	Autofluor counter	PrP 5UTR inh	Sa RN4220 lethal	BJeLR viability
Cc1ccc(C)c(NC(=S)N2C3CCCC2CC(NC(=O)C2CC2)C3)c1 (stereo not drawn)
  -9	-2	14	6183	-8	3.0	-3
CC(C)Cc1nnc(NC(=O)Nc2ccccc2)s1
  1	-1	2	3902	-61	4.5	8
Cc1ccc(/C=C/c2nnc(-c3ccc(C)cc3)o2)cc1
  4	-3	-6	9708	-18	12	11
COC(=O)C(NC(=O)CN1C(=O)c2ccccc2C1=O)c1ccc(O)c(OC)c1 (stereo not drawn)
  17	3	4	3997	-4	3.1	-13
O=C(N/N=C/c1ccc2c(c1)OCCO2)c1ccncc1
  /	/	/	3801	-28	/	-4
N#Cc1nc(COc2cccc(Cl)c2)oc1N1CCCC1
  7	-3	7	5134	-5	7.1	2
COc1cccc(CNC(=O)Cn2c(=O)oc3ccccc32)c1OC
  6	2	5	5626	-67	1.5	-10
CSc1nc2ccccc2cc1/C=C(\C#N)c1cccc(C)c1
  /	/	26	5267	-19	-14	9
O=C(CC(Cc1ccccc1)C(=O)O)Nc1ccc(F)cc1 (stereo not drawn)
  6	5	2	3612	-22	5.3	-8
O=C(NNc1cccc(Cl)n1)C1CC1
  5	10	17	3135	-36	2.2	-4
CCOC(=O)C1=C(N)N2C(=O)CSC2=C(C(=O)OC)C1
  4	2	-5	3373	-13	-6.5	7
Cc1ncc(CN2CCN(CCc3ccccc3)C(CCO)C2)s1 (stereo not drawn)
  3	4	0	4476	-4	4.6	3
O=C1CCCN1CCC12CC3CC(CC(C3)C1)C2
  /	/	-3	6371	-6	0.5	5
Cc1cccc(S(=O)(=O)c2c(N)n(/N=C/c3ccco3)c3nc4ccccc4nc23)c1
  /	/	/	22583*	-5	/	-6
Cc1cc(NC(=O)c2ccccc2F)n(C(C)(C)C)n1
  -5	-12	-4	5950	-25	1.1	4
Cc1ccc(S(=O)(=O)CCC(=O)NCCN2C(=O)S/C(=C/c3ccc(F)cc3)C2=O)cc1
  -2	2	-4	8336	-16	13	-4
CCOC(=O)C1C2C=CC3(CN(c4ccccc4CC)C(=O)C13)O2 (stereo not drawn)
  /	/	-2	3234	-28	-0.8	-9
CCOC(=O)CSC1=Nc2ccccc2C2=NC(CC(=O)NCc3ccc4c(c3)OCO4)C(=O)N12 (stereo not drawn)
  2	4	4	4495	-3	2.8	/
O=Cc1ccc(-c2cccc(C(=O)O)c2)o1
  1	2	2	4296	-22	6.1	-7
O=C(CN(Cc1ccc(F)cc1)C(=O)CCC(=O)Nc1nccs1)NCc1ccc(F)cc1
  2	16	2	5435	-1	4.2	-15
Cc1ccc(C(=O)CCC(=O)OCC(=O)NNC(=O)c2ccc([N+](=O)[O-])cc2)cc1
  -3	-6	3	2952	10	4.2	/
Cc1cccc2nc(CSc3nc4ccc([N+](=O)[O-])cc4[nH]3)c(Br)n12
  -19	-1	-5	9931	-4	-2.2	7
Cc1ccc2nsnc2c1S(=O)(=O)N1CCN(C)CC1
  5	4	-2	4017	-19	7.1	-5
NC(=O)c1cnn(-c2cccc(Cl)c2)c1N
  14	7	5	/	-12	1.6	2
CN(Cc1ccccc1)c1nc2c(c(=O)[nH]c(=O)n2C)n1CCSc1nc2ccccc2[nH]1
  /	/	-8	3454	3	-1.2	4
CCc1ccc2nc(N(CCCN(C)C)C(=O)c3ccc(C(=O)c4ccccc4)cc3)sc2c1
  5	7	-32	6490	-5	6.3	-1
CC(Cc1ccccc1)NCC(=O)Nc1cc(N(C)C)nc2ccccc12 (stereo not drawn)
  7	11	4	4325	-6	1.6	11
Cc1c(C(=O)NCc2c(F)cc(F)cc2F)oc2ccc(S(=O)(=O)N3CCOCC3)cc12
  3	7	9	3663	-14	7.7	-10
Cc1c(NC(=O)C2(c3ccc(Cl)cc3)CCCC2)c(=O)n(-c2ccccc2)n1C
  15	7	9	9321	-21	1.8	-8
COc1ccc(N2CCN(C(=O)C3Cc4ccccc4CN3C(=O)c3ccco3)CC2)cc1 (stereo not drawn)
  -1	-2	3	3074	-49	0.4	/

Brought forward from above: 2 entries, then new ones.
Below each compound: Mtb hypoxia inh	Mtb hypoxia inh growth	Sa ugtP lethal	Autofluor counter	PrP 5UTR inh	Sa RN4220 lethal	BJeLR viability
Cc1c(NC(=O)C2(c3ccc(Cl)cc3)CCCC2)c(=O)n(-c2ccccc2)n1C
  15	7	9	9321	-21	1.8	-8
COc1ccc(N2CCN(C(=O)C3Cc4ccccc4CN3C(=O)c3ccco3)CC2)cc1 (stereo not drawn)
  -1	-2	3	3074	-49	0.4	/
CCN(C(=O)COc1cccc(-n2cnnn2)c1)C1CCS(=O)(=O)C1 (stereo not drawn)
  -6	11	-2	3796	-14	-0.7	/
O=C1NC(=O)N(Cc2ccco2)C(=O)/C1=C/C=C/c1ccco1
  7	2	3	4688	-42	5.0	26
Cc1cccc(N(C(=O)Nc2ccc(Cl)cc2)C2=NCC(C)S2)n1 (stereo not drawn)
  -1	-12	2	4046	-39	1.1	1
Cc1cccc(CC(=O)N2CCC(N3CCC(C(=O)N4CCOCC4)CC3)CC2)c1
  -3	-1	0	3995	-24	1.1	-6
CCN(CC)S(=O)(=O)c1cc(C)ccc1NC(=S)Nc1cccnc1
  0	0	2	4377	2	1.2	3
O=C(NC1CCN(C(=O)Nc2ccccc2)CC1)C1CCCCC1
  7	0	-2	9774	-17	0.2	2
O=C(Cn1cncn1)c1ccccc1
  0	12	12	3961	-12	4.2	-4
COc1ccc(N(C)S(=O)(=O)c2ccc3c(c2)NC(=O)CO3)c(OC)c1
  -5	1	-2	5535	6	29	2
C[C@@H](NC(=O)[C@@H]1Cc2ccccc2CN1)C(=O)Nc1ccc2c(c1)OCO2
  /	/	-5	4969	-8	0.2	-5
O=C(NCc1ccc[n+](CCCCS(=O)(=O)[O-])c1)c1ccc(OC(F)F)cc1
  -4	8	2	/	/	8.9	-1
O=C(c1cccc(OC2CCN(C3CCCC3)CC2)c1)N1CCCCCCC1
  0	6	3	4458	-16	0.4	8
CCC(C)(C)NC(=O)/C=C/c1ccccc1[N+](=O)[O-]
  10	3	17	3191	-22	4.0	5
COc1ccc(C(=O)NNC(=O)OC(C)(C)C)cc1
  5	10	7	4376	-19	0.9	-9
CCOC(=O)c1sc(NC(=O)c2ccco2)c(C#N)c1C
  11	1	28	10211	-22	27	9
CC(C)(c1ccccc1)c1ccc(OCC(O)CNC2CCN(Cc3ccccc3)CC2)cc1 (stereo not drawn)
  /	/	/	4322	-34	/	9
CCOc1ccccc1OCC(=O)Nc1c(C)n(C)n(-c2ccccc2)c1=O
  2	0	4	3896	-18	0.6	/
Cc1cccc(C)c1NC(=S)NC(=O)c1ccccc1F
  2	6	-10	2096	-11	13	0
Cc1cc(C(=O)OCC(=O)Nc2cccc(S(=O)(=O)N(C)C)c2)c2ccccc2n1
  7	-1	0	4142	-9	7.8	3
CC(C)(C)NC(=O)Cn1cnc2cc([N+](=O)[O-])ccc2c1=O
  5	9	1	4789	11	9.8	-12
Cc1ccc(S(=O)(=O)N2CCC3(CC2)OCCO3)s1
  6	-4	-3	5593	-22	0.7	6
Cc1ccc(NC(=O)CN(C)C(C)C(=O)N2CC(C)CC(C)C2)cc1 (stereo not drawn)
  0	5	1	9173	-1	1.6	/
CC(=O)Nc1ccc(NC(=O)C(C)OC(=O)CC2CCCC2)cc1 (stereo not drawn)
  3	-1	9	4415	-6	-0.3	8
Cc1cc(NC(=S)N(CCN2CCOCC2)Cc2ccccc2F)ccc1Cl
  -2	9	-1	3980	-11	-1.0	9
Cc1ccc(S(=O)(=O)N(CC(=O)NCc2cccnc2)C2CCCCC2)cc1
  2	15	-3	4216	-56	2.3	-4
CC(=O)c1c(-c2ccccc2)c2ccccc2[nH]c1=O
  -4	3	6	4357	-33	5.2	7
CCOC(=O)/C=C/C(=O)N1CCc2ccccc21
  9	7	7	3000	3	1.1	1
COC(=O)C1=C(c2cccc(OCc3ccccc3)c2)CC2CCC1N2C(=O)NCc1ccccc1C(F)(F)F (stereo not drawn)
  7	-5	10	/	/	-5.6	/
O=c1oc2cccnc2n1CCS(=O)(=O)c1ccc(F)cc1
  0	3	3	6112	10	5.3	-1
COCCN1C(=O)NC(CCc2ccccc2)C(C(C)=O)=C1C (stereo not drawn)
  10	3	-15	/	/	18	/
COc1ccc(S(=O)(=O)NN=C(C)c2ccncc2)cc1
  -6	-3	-5	/	/	-2.5	/
CC1=NN(c2ccc(C)c(C)c2)C(=O)/C1=C\C=C\c1ccc([N+](=O)[O-])o1
  10	14	1	3271	-9	17	29
CCc1cccc(CC)c1NC(=S)N1CC2CC(C1)c1cccc(=O)n1C2 (stereo not drawn)
  5	-8	4	2461	-13	-0.4	0
O=S(=O)(Nc1cccc(-c2ccc(N3CCCCCC3)nn2)c1)c1ccc(F)cc1
  8	14	13	6208	-66	-3.5	12
O=C(NNc1ccccc1)Nc1ccccc1F
  6	4	-5	3047	-2	-3.5	-6
O=C1c2ccsc2SCCN1Cc1ccccc1Cl
  /	/	1	2555	4	4.4	-2
CCN(CC)CC(=O)Nc1c(Br)ccc2c1OCO2
  8	-4	2	4487	-8	2.4	-1
COC(=O)COc1ccc(Oc2cc(C)nc(SC)n2)nn1
  6	6	3	21755*	-4	1.9	5
CC1CCc2c(cnc3ncnn23)C1 (stereo not drawn)
  9	15	16	4127	-10	6.4	-11
Oc1ccc2ccccc2c1CN1CCCCC1
  9	16	0	3605	-14	1.4	/
Cc1cc(S(=O)(=O)Cc2noc(-c3c(C)noc3C)n2)c(C)cc1Cl
  10	10	16	4547	15	9.2	12
CCOc1ccccc1C=NNc1ccc([N+](=O)[O-])cn1
  6	7	-4	3651	-13	2.0	/
CCn1cc(C(=O)O)c(=O)c2cnc(N3CCN(C(=S)Nc4ccccc4)CC3)nc21
  -7	8	4	5422	-4	17	-3
O=C(CCNC(=O)c1ccc(Br)cc1)NCC(c1ccco1)N1CCCCC1 (stereo not drawn)
  2	-5	10	/	/	3.7	/
Nc1cccc2c1C(=O)N(Cc1cccc(Cl)c1)C2=O
  7	2	5	3961	-3	-1.2	-8
CCOC(=O)Nc1ccc2c(c1)nc(CN1CCCCC1)n2C
  6	-1	0	3289	-2	11	-4

Among those listed so far, these contain a tert-butyl group.
Below each compound: Mtb hypoxia inh	Mtb hypoxia inh growth	Sa ugtP lethal	Autofluor counter	PrP 5UTR inh	Sa RN4220 lethal	BJeLR viability
Cc1cc(NC(=O)c2ccccc2F)n(C(C)(C)C)n1
  -5	-12	-4	5950	-25	1.1	4
COc1ccc(C(=O)NNC(=O)OC(C)(C)C)cc1
  5	10	7	4376	-19	0.9	-9
CC(C)(C)NC(=O)Cn1cnc2cc([N+](=O)[O-])ccc2c1=O
  5	9	1	4789	11	9.8	-12

Following part
Below each compound: Mtb hypoxia inh	Mtb hypoxia inh growth	Sa ugtP lethal	Autofluor counter	PrP 5UTR inh	Sa RN4220 lethal	BJeLR viability
Cc1ccc(/C=N/NC(=O)c2nnn(-c3nonc3N)c2C(C)C)s1
  /	/	/	5325	-3	/	6
CN1CCc2c([nH]c3ccccc23)C1
  /	/	6	5711	-28	-0.2	3
O=C(N/C(=C\c1ccccc1)C(=O)N1CCOCC1)c1ccccc1Br
  3	3	0	5824	-12	-0.2	-2
Cc1ccc(C(=O)OCC(=O)NC(=O)c2ccc(C(C)(C)C)cc2)c(O)c1
  4	6	1	/	-16	3.7	-19
CC(C)CCn1nnnc1CN1CCN(C(c2ccccc2)c2ccccc2)CC1
  3	8	2	9430	-10	-5.5	-2
CCOc1ccccc1NC(=O)Nc1ccc(OC)nc1
  16	11	-5	3080	-6	-4.9	-1
CC(=O)c1ccccc1Oc1ncnc(N)c1[N+](=O)[O-]
  -3	-6	8	2809	-12	2.9	-7
CC1CCc2c(nc3ncnn3c2NCCN(C)C)C1 (stereo not drawn)
  -3	0	4	3901	-15	8.4	-14
O=C(Nc1c(-c2ccccc2)nc2c(Br)cc(Br)cn12)c1ccco1
  4	3	-8	3103	-7	3.2	5
O=C1C2C(C(=O)N1Cc1cccnc1)C1C=CC2C12CC2 (stereo not drawn)
  -2	9	0	3084	-7	3.2	3
CCOC(=O)/C=C1\SCC(=O)N1CC(O)CN1C(=O)CS/C1=C\C(=O)OCC
  /	/	9	3695	-11	20	9
